Assay outcomes deposited in PubChem by National Center for Advancing Translational Sciences (NCATS).
PMP22 txn prim: PMP22 gene transcription modulation | S16 Pmp22-F2sN Schwann cells (luciferase reporters placed in the Pmp22 gene), FLuc/NLuc coincidence luminescence, 24 h | AID 1508649 | hit rate 2% among 43,000 | Potency, µM (top dose mostly 57.5 µM), without a hit: at the highest dose activity change, negative = inhibition, usual class: inhibitors; active = clear falling dose curves in both reporters; inconclusive = both reporters move, but less clearly or upward; inactive = either reporter flat; the % is the NLuc reporter signal; note: % is set by controls: 0 for no effect and ±100 for the full control effect; some results filed as inactive show a strong effect at the top dose
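S16 Schwann cells carrying FLuc/NLuc coincidence reporter in the Pmp22 3' UTR treated with compound 24 h at 37C; FLuc then NLuc luminescence read sequentially by dual-luciferase reagents.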
HTT prom inh: HTT promoter inhibition. hit rate 0.93% among 48,000. HEK293 HTT promoter firefly luciferase reporter (activity 0% = vehicle and -100% = no light), 24 h. Potency, µM (series often up to 57.5 µM), inactives show at the top dose activity change, negative = inhibition, actives largely listed as inhibitors; active = well fitted inhibition curve with a large enough effect; inconclusive = small, poorly fitted or top-dose-only effect; inactive = no such curve, though single readings can be large or run the other way; note: nearly all actives have a fitted effect of over 50% in size
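HEK293 luciferase promoter-reporter cells (2,500/well) plated 24 h, then compounds added at up to 57.5 uM final for 24 h at 37 °C. Firefly luminescence by Dual-Glo, normalized to vehicle (0%) and zero RLU (-100%).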
* marks the source's active call; other numbers are inactive results; ? = inconclusive; / = not tested or not shown; & = joins results of further samples; [ ] = remark or other dose. Potency is the fitted concentration of half-maximal effect.

Below each SMILES: PMP22 txn prim	HTT prom inh
O=C(Cn1c(=O)oc2cc(S(=O)(=O)N3CCCCC3)ccc21)Nc1cccc(Cl)c1
 : -35.0%	?
COc1cccc(NC(=O)Cn2nnc(C(=O)NCc3cccs3)c2N)c1
 : 3.2%	-6.2%
Cc1cc(C)c(Cn2cnc3nc4c(cc3c2=O)CCCC4)c(C)c1
 : ?	?
O=c1[nH]c2ccc(NCc3ccc(-c4ccc(F)cc4)o3)cc2[nH]1
 : -6.1%	?
CCN(CC)c1ccc(C(=O)NCc2ccc3c(c2)CCN3C(=O)c2ccc(F)cc2)cc1
 : 7.27µM*	-17.9%
O=C(Cc1ccc(-c2ccccc2)cc1)NCCS(=O)(=O)N1CCN(c2ccc(F)cc2)CC1
 : -1.6%	-29.8%
COc1ccc(S(=O)(=O)NCCc2csc(-c3ccc(F)cc3)n2)cc1
 : ?	1.7%
O=C1NC2CCCCN2C12CCN(CCCN1c3ccccc3CCc3ccc(Cl)cc31)CC2 (configuration not stated)
 : /	-15.3%
Cc1nn(C(=O)c2ccccc2F)c(C)c1S(=O)(=O)N1CCOCC1
 : -3.4%	-13.0%
Clc1ccc(CSc2nc(NCCc3ccccc3)c3ccccc3n2)cc1
 : ?	2.5%
CC1CCCN(c2ncnc3c2nc2n3CCCCC2)C1 (configuration not stated)
 : -4.5%	36.2%[activator]
O=C(NCCc1ccccc1)c1ccc(CS(=O)(=O)c2ccc(Br)cc2)o1
 : -9.5%	-12.5%
Cc1ccc2c(CNC3CCC(C)CC3)c(C(=O)O)n(Cc3cccc(F)c3)c2c1 (configuration not stated)
 : 14.0%	-9.6%
Cc1ccc(-c2noc(CN(C(=O)c3ccc(C(C)(C)C)cc3)C(C)C)n2)cc1
 : ?	-3.6%
O=C(Nc1ccc(F)cc1Cl)C1Cc2ccccc2N1C(=O)c1ccccc1 (configuration not stated)
 : -11.1%	-2.8%
Cc1sc(-n2cccc2)c(C(C)NC(=O)Nc2ccccc2Cl)c1C (configuration not stated)
 : 0.6%	?
Cc1ccc(NC(=O)CCNS(=O)(=O)c2ccc3c(c2)CCN3C(=O)C2CC2)c(Cl)c1
 : ?	?
Cc1c(Cl)ccc2sc(N3CCN(C(=O)C4CC4)CC3)nc12
 : ?	-22.0%
COc1ccccc1N(CC(=O)NCCSCc1ccccc1)S(=O)(=O)c1ccc(C)cc1
 : ?	?
CCc1ccccc1NC(=O)Cn1c(=O)n(-c2ccc(C)cc2)c(=O)c2c1c1cc(C)ccc1n2C
 : -49.5%	3.7%
COc1ccc2c(c1)c(CC(=O)O)c(C)n2C(=O)c1ccc(Cl)cc1
 : /	-12.9%&-23.2%
O=C(CSc1n[nH]c(-c2ccccc2Cl)n1)NCCCc1ccccc1
 : -14.4%	0.4%
O=C(c1ccc(F)cc1)n1nc(-c2ccccc2)nc1NCc1ccc(F)cc1
 : ?	4.9%
C=C(C)CSc1nc(-c2ccccc2)cc(-c2ccc(OC)cc2)c1C#N
 : -4.3%	-20.3%
CCOC(=O)c1cccc(NC(=O)CCc2c(C)nn(-c3ccc(N4CCOCC4)nn3)c2C)c1
 : -4.6%	-1.5%
O=C(CN1C(=O)COc2ccccc21)NCCc1ccc(Cl)cc1
 : 6.3%	-12.0%
CC(C(=O)O)c1ccc(C(=O)c2ccccc2)s1 (configuration not stated)
 : /	32.6%[activator]
Cc1ccc(NC(=O)c2cc(S(=O)(=O)N3CCOCC3)c(Cl)cc2Cl)cc1
 : ?	?
CC(=O)c1ccc(NC(=O)c2nc3ccccc3nc2N2CCCCC2)cc1
 : -17.9%	-25.5%
CCOc1ccc(N(CC(=O)NCc2ccc(C)cc2)S(=O)(=O)c2c(C)noc2C)cc1
 : -11.8%	-1.8%
CCc1cccc2c(-c3ccccc3)nc(SCC(=O)Nc3ccccc3OC)nc12
 : -7.8%	-5.4%
Cc1ccc2[nH]c(CSc3nnc(NC(=O)COc4ccccc4)s3)cc(=O)c2c1
 : -8.5%	-11.9%
CC(=O)N1CCc2cc(S(=O)(=O)NC(CC(C)C)C(=O)NCCc3ccc(C)cc3)ccc21 (configuration not stated)
 : 13.0%	-6.2%
Cc1cc(OC(C)C(=O)Nc2c(C(=O)c3ccc(F)cc3)oc3ccccc23)ccc1Cl (configuration not stated)
 : -15.5%	-9.5%
CCN1C(=O)c2ccccc2Sc2ccc(NC(=O)Nc3ccc(Br)c(C)c3)cc21
 : ?	?
Cc1cc(N2CCCCC2)nc2ccc(NC(=O)/C=C/c3ccc(OC(C)C)cc3)cc12
 : -24.4%	?
COc1ccc(C)cc1NC(=O)Cn1c(=O)c(C(F)(F)F)nc2ccccc21
 : 6.5%	-6.7%
CSc1nn(Cc2ccc(F)cc2)c(N)c1S(=O)(=O)c1ccc(Cl)cc1
 : ?	?
Cc1cccc(NC(=O)CSc2nc3c(oc4ccccc43)c(=O)n2-c2ccc(F)cc2)c1
 : -9.6%	-9.9%
Cc1cccc(CNC(=O)CS(=O)(=O)c2cccc3nsnc23)c1
 : 0.6%	-6.4%
O=C(NCc1ccccc1)c1ccc2c(c1)CCN2S(=O)(=O)c1ccc(Cl)cc1
 : 1.5%	?
Cc1ccc(-n2ncc(C(=O)NCCN3CCc4ccccc4C3)c2C2CCNCC2)cc1C
 : ?	-5.0%
CCOC(=O)c1cc2c(=O)n3ccccc3nc2n(CC2CCCO2)c1=NC(=O)c1ccc(C(C)(C)C)cc1 (configuration not stated)
 : -12.6%	-8.5%
CCOc1ccc(NCc2cccn2-c2nnc(N3CCC(C(=O)NCc4ccccc4Cl)CC3)s2)cc1
 : -43.0%	22.4µM*
CCCn1c2ccccc2c2cnn(CC(=O)NCC3CCN(Cc4ccc(F)cc4)CC3)c(=O)c21
 : ?	-9.9%
CC(CNC(=O)CN1C(=O)c2cccnc2Oc2ccc(Cl)cc21)c1ccccc1 (configuration not stated)
 : -0.6%	-4.1%
COc1ccc(-c2noc(N3CCN(c4cccc(C)c4C)CC3)n2)cc1OC
 : -2.3%	?
CC(C)(C)C1CCc2c(sc3nc(-c4cc5cc(Br)ccc5oc4=O)[nH]c(=O)c23)C1 (configuration not stated)
 : -2.0%	-10.6%
O=C(Cn1c(=O)n(Cc2ccc(C(=O)NCc3ccc4c(c3)OCO4)cc2)c(=O)c2ccccc21)Nc1ccc(F)cc1F
 : 0.8%	-13.0%
CCOC(=O)c1ccccc1NC(=O)CN(c1ccccc1)S(=O)(=O)c1ccc(OCC)cc1
 : ?	-27.8%
COC(=O)c1ccc(Cl)cc1NC(=O)N1CC(C)Oc2ccccc21 (configuration not stated)
 : 5.9%	-5.2%
CSc1ccc(CCNC(=O)Cn2ncc3c(=O)oc4ccc(C)cc4c32)cc1
 : -22.7%	0.0%
CC(C)Cc1nn2c(=O)cc(COC(=O)c3ccccc3NC(=O)C3CCCCC3)nc2s1
 : ?	-15.3%
COc1ccc(C(=O)N2CCC(c3nc4ccccc4s3)CC2)cc1Cl
 : ?	?
COc1cccc(CNC(=O)c2cc3c(=O)n(C)c4ccccc4c3n2C)c1
 : 12.7µM*	3.2%
CC(C)(Oc1ccc(Cl)cc1)C(=O)Nc1cccc(-c2cn3cccnc3n2)c1
 : -17.4%	-24.9%
CCN(CC)CCCC(C)Nc1ccnc2cc(Cl)ccc12 (configuration not stated)
 : /	-11.4%
CCc1ccc(NC(=O)CSc2nc3ccccc3c(=O)n2CCNC(C)=O)cc1
 : 2.6%	16.2%
COC(=O)CC1Oc2ccc(C)cc2-n2cc(-c3ccc(C)cc3)nc21 (configuration not stated)
 : 8.9%	-22.8%
CC(=O)Nc1cccc(C(=O)NCc2ccc3c(c2)CCN3C(C)=O)c1
 : -7.4%	-21.0%

Gathered by group, those above with bromine
Below each SMILES: PMP22 txn prim	HTT prom inh
O=C(NCCc1ccccc1)c1ccc(CS(=O)(=O)c2ccc(Br)cc2)o1
 : -9.5%	-12.5%
CCN1C(=O)c2ccccc2Sc2ccc(NC(=O)Nc3ccc(Br)c(C)c3)cc21
 : ?	?
CC(C)(C)C1CCc2c(sc3nc(-c4cc5cc(Br)ccc5oc4=O)[nH]c(=O)c23)C1 (configuration not stated)
 : -2.0%	-10.6%

The list continues.
canonical_smiles	PMP22 txn prim	HTT prom inh
O=C(O)c1c2c(nc3ccc(S(=O)(=O)N4CCC(C(=O)NCc5ccc(Cl)cc5)CC4)cc13)CCCC2	0.9%	-2.5%
Cc1nc2sc(C(=O)N(C)c3ccccc3)c(NC(=O)c3ccccc3Cl)c2c(C)c1C	17.3%	15.9%
Cn1nc(C(=O)N2CCN(c3ccccc3F)CC2)c2c1-c1ccccc1SC2	-14.5%	-18.4%
O=C(CS(=O)(=O)c1nc(-c2ccc(Cl)cc2)cn1-c1ccccc1)Nc1ccc(F)cc1F	?	-4.9%
CN(C)CC/C=C1\c2ccccc2COc2ccccc21	/	-4.7%
Cc1cccc(NC(=O)CSc2nc(=O)n(CCN3CCOCC3)c3c2CCC3)c1C	?	-11.5%
CC(C)NC(=O)c1ccc(Cn2c(SCc3ccc(F)cc3)nc3cccnc32)cc1	-22.7%	-10.6%
CCOc1ccc(-c2cn3c(n2)sc2cc(C(=O)NCCCc4ccccc4)ccc23)cc1	5.7%	-33.2%
CCOC(=O)c1cnc(N2CCN(c3ccc(C)cc3C)CC2)c2ccccc12	?	-16.0%
O=C(CSC1=Nc2ccccc2N=C(c2ccc(F)cc2)C1)NCc1ccc(F)cc1	?	-11.8%
COC(=O)c1cc2occc2n1Cc1nc(-c2ccc(C)cc2)oc1C	-7.4%	?
CCc1ccccc1NC(=O)COC(=O)c1cn(CC)c2nc(C)ccc2c1=O	-5.5%	-14.3%
COC(=O)c1ccc(C2Nc3c(C)cccc3-c3cc(C)nn32)cc1 (configuration not stated)	-57.7%	?
COc1ccc(Nc2nccc(NCCO)n2)cc1	/	35.4%[activator]
Cc1ccccc1NC(=O)Cn1cc(S(=O)(=O)c2ccccc2)c(=O)c2ccccc21	4.1%	-15.2%
Cc1cccc(Nc2ccncc2S(=O)(=O)NC(=O)NC(C)C)c1	/	-2.2%&-10.2%
CCCCC(=O)N1CCN(c2nc3c(C)c(C)ccc3s2)CC1	?	-19.1%
CCc1ccc(CNC(=O)CCCN2C(=O)c3cccnc3Oc3ccc(Cl)cc32)cc1	-21.5%	-11.9%
COc1cc(Nc2ncc3c(n2)CCN(Cc2cccc(C)c2)C3)cc(OC)c1	-55.5%	?
Cc1oc(-c2ccc(Cl)cc2)nc1CN1CCC(C(=O)NCCCN2CCN(c3cccc(Cl)c3)CC2)CC1	13.4µM*	-21.1%
Cc1noc(C)c1S(=O)(=O)N(CC(=O)Nc1ccc(C(F)(F)F)cc1)c1ccc(C(C)C)cc1	?	?
COc1ccc(C)cc1NC(=O)Nc1ccccc1OCc1cc(=O)n2ccccc2n1	-14.9%	-11.2%
CC1CCN(c2oc(-c3ccc(COc4ccccc4)o3)nc2C#N)CC1	?	?
Cc1nnc(SCc2ccc(Cl)cc2)c2cc3occc3n12	-44.3%	-9.0%
Cc1cc2ncn(CCCCOc3ccccc3)c2cc1C	?	0.1%
CCOc1ccccc1C1N=C(N)Nc2nc3ccccc3n21 (configuration not stated)	-0.5%	-15.8%
Cc1ccccc1-c1nn2c(=O)cc(CN3CCN(C(=O)c4ccc(C(C)(C)C)cc4)CC3)nc2s1	8.9%	?
CCC(C)NC(=O)c1ccc2nc(Cc3ccccc3)oc2c1 (configuration not stated)	?	3.8%
Cc1ccccc1NC(=O)CCS(=O)(=O)c1cc(Br)cc2c1N(C(=O)C1CC1)CC2	-13.1%	-12.4%
CCOc1cc(C2C(C(=O)OC)=C(C)NC3=C2C(=O)c2ccccc23)ccc1O (configuration not stated)	?	-20.7%
CCCn1c(=N)c(C(=O)NC2CCCCC2)cc2c(=O)n3cc(C)ccc3nc21	-7.3%	1.8%
CCCNC(=O)COCc1cc(-c2ccc(F)cc2)on1	16.3%	7.8%
CCOc1ccccc1NC(=O)Cn1nnc(C(=O)NCc2ccc(F)cc2)c1N	-14.5%	-12.9%
Cc1nnsc1C(=O)Oc1ccccc1Cl	-70.0%	3.2%
CCCCOc1ccc(C(=O)N2CCCCC2CCN2CCOCC2)cc1 (configuration not stated)	-22.4%	-6.2%
CCn1c(=O)n(-c2ccc3c(c2)OCO3)c2nc(-c3cc(OC)ccc3OC)nc(C(N)=O)c21	15.6%	-2.4%
CC1CCCN(CCCNC(=O)c2ccc3c(c2)N(Cc2cccc(Cl)c2)C(=O)c2ccccc2S3(=O)=O)C1 (configuration not stated)	?	-17.4%
CCOc1ccc(NC(=O)c2cc3c(-c4ccccc4F)nn(C)c3s2)cc1	-18.3%	-15.5%

In the list so far, these contain a tert-butyl group.
canonical_smiles	PMP22 txn prim	HTT prom inh
Cc1ccc(-c2noc(CN(C(=O)c3ccc(C(C)(C)C)cc3)C(C)C)n2)cc1	?	-3.6%
CCOC(=O)c1cc2c(=O)n3ccccc3nc2n(CC2CCCO2)c1=NC(=O)c1ccc(C(C)(C)C)cc1 (configuration not stated)	-12.6%	-8.5%
CC(C)(C)C1CCc2c(sc3nc(-c4cc5cc(Br)ccc5oc4=O)[nH]c(=O)c23)C1 (configuration not stated)	-2.0%	-10.6%
Cc1ccccc1-c1nn2c(=O)cc(CN3CCN(C(=O)c4ccc(C(C)(C)C)cc4)CC3)nc2s1	8.9%	?

Only part of the results is shown, so the mix of outcomes need not match the whole.
